RanGTP-Imp inh: disruptors of Ran-importin-beta complex formation – biochemical, FRET, CFP-Ran, YFP-importin-beta, homogeneous, primary screen. cell-free CFP-Ran/YFP-importin-beta FRET ratio. inhibition, % (concentration not given with the values). 1.1% of 300,000 active. AID 2216;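 active = most replicates above 15%; inconclusive = exactly half above 15%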;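 note: 0% = DMSO wells and 100% = Ran loaded with GDP instead of GTP; wells of about 40 µL received 100 nL stock; the first replicate is given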
Beta cell apopt: beta cell apoptosis inhibition. INS-1E cytokine-induced death, ATP luminescence, 48 h; percent of positive-control rescue, neutral wells zero. protection from apoptosis, % (concentration not given with the values). 0.8% of 300,000 active. AID 435005;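 active = all replicates at 75% or more, or half of them and the mean; inconclusive = half reach 75% but not the mean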;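 note: 0% = cytokine-treated negative control wells and 100% = positive control rescue; higher means more ATP so stronger rescue from cytokine killing; wells of about 40 µL received 100 nL stock; the first replicate is given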
Ecoli rRNA inh: inhibits bacterial ribosomal RNA function over humanized ribosomes; 1.6% of 350,000 active; AID 720706; E. coli WT GFP vs humanized-ribosome RFP mutants, fluorescence, 24 h; active compounds read low; DMSO median 0, no signal -100; GFP signal change (wild-type ribosome), % (test concentration not listed);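 active = significant combined selectivity score with lowered wild-type GFP, culture density cut under 30%, mutant RFP and density less affected; inactive = any of these conditions unmet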; note: one replicate is shown; some compounds called inactive have numbers as strong as hits
AF4-AF9 inh: inhibitors of human MLL-AF4/AF9 interaction | P42568 | 0.47% of 350,000 active | AID 651704 | inhibition, % at 10 µM | AlphaScreen, biotin-AF4 peptide binding to FLAG-AF9;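 active = every replicate reaching a set inhibition limit, whatever the replicate mean, cut at about 25% in these data; inconclusive = mean inhibition reaches that limit but some replicates miss it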;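 note: 0% = plate neutral control median and 100% = total signal loss; the record names both 10 and 1 µM as test concentration; the first replicate is given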
Target sequence (P42568 whole entry, looked up): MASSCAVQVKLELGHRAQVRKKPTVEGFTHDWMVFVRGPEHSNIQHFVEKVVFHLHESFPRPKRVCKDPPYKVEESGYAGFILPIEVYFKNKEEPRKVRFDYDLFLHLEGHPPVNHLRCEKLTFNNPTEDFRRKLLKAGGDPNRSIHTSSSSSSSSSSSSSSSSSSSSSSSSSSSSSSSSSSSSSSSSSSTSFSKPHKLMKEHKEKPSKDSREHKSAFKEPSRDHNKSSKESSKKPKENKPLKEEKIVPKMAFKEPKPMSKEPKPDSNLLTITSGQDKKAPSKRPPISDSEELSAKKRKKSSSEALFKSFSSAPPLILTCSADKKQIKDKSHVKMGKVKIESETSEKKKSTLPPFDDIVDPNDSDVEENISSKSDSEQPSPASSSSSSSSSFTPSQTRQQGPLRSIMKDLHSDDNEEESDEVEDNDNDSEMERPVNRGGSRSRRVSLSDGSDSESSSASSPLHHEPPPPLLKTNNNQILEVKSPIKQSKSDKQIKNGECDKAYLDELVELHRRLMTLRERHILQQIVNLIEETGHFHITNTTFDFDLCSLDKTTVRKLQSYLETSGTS
Calb FLC: affects C. albicans growth with fluconazole; C. albicans CaCi-2 (fluconazole-resistant clinical isolate) + fluconazole, Alamar Blue growth, 48 h; growth inhibition, % (no concentration beside the values); 0.57% of 300,000 active;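 active = most replicates above 75%; inconclusive = exactly half above 75%; inactive = most below 75%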;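 note: all wells also contain fluconazole at 8 µg/ml as a sub-toxic cotreatment; 0% = median of DMSO wells and 100% = median of geldanamycin control wells; wells of about 8 µL received 7.5 nL stock; the first replicate is given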
FGF22 binding: shifts melting point of recombinant human FGF22; 1.5% of 340,000 active; calls only at 9.99 µM; recombinant FGF22 thermal shift, SYPRO orange fluorescence; percent of sucrose octasulfate shift, DMSO zero; Q9HCT0;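 active = melting point raised past a set limit in the mean and every replicate; inconclusive = no clear call; three in four hits are not shown here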
Target sequence (Q9HCT0 whole entry, looked up): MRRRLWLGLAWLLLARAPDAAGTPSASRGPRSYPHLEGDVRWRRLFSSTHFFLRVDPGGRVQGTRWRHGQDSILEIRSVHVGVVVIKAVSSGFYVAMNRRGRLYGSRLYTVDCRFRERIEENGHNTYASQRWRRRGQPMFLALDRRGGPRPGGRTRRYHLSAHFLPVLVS
T cruzi inh: T. cruzi replication inhibition; 1.4% of 300,000 active; inhibition, % (test concentration not listed); T. cruzi beta-gal in NIH3T3, luminescence, 90 h;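 active = mean inhibition across valid replicates above about 55%, limit read from the data; inconclusive = mean below that limit but half or more replicates reach it; inactive = mean below it, under half of replicates reach it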;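 note: signal also drops with host cell toxicity which is not excluded here; 0% = plate median of DMSO wells and 100% = zero luminescence signal; higher percent means less beta-gal luminescence so fewer parasites; stock transfer was 50 nL into about 50 µL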
ALR inh: human ALR oxidase inhibition via reduced H2O2. purified ALR, DTT oxidation, H2O2 HRP-luminol luminescence. inhibition, % (test concentration not listed). 3.8% of 290,000 active. AID 485317;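 active = mean and each replicate at 75% or more; inconclusive = only one of the two met; inactive = neither met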;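 note: stock transfer was 7.5 nL into about 7.5 µL; 0% = neutral wells and 100% = wells with inactivated enzyme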
Target sequence (P55789 whole entry, looked up): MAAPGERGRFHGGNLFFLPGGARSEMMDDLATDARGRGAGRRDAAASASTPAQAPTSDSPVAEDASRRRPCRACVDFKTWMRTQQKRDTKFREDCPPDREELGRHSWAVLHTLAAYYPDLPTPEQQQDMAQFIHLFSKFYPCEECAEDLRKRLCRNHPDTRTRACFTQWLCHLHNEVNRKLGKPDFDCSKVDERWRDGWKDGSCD
Ecoli rRNA inh OD600: also measured in Ecoli rRNA inh; calls as there; OD600 change, %; measured here: OD600 growth;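 optical density of the mix in the first replicate; 0 = DMSO median and -100 = no signal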
Ecoli rRNA inh RFP: recorded beside Ecoli rRNA inh, whose call it bears; RFP signal change, %; measured here: RFP humanized mutant strains;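 first replicate; 0 = DMSO median and -100 = no signal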
The depositor's hits bear a star; i = inactive; ? = inconclusive; . = no result given; + = active, no number. Only part of the results is shown; count on the stated rates, not on these rows.

SMILES	RanGTP-Imp inh	Beta cell apopt	Ecoli rRNA inh	Ecoli rRNA inh OD600	Ecoli rRNA inh RFP	AF4-AF9 inh	Calb FLC	FGF22 binding	T cruzi inh	ALR inh
COc1ccc(Nc2ccccc2)c(C)c1	-1.8	-6	-12	14	3.4	11	-3	i	10	37
CN(C(=O)c1ccc(NC(=O)Cc2ccc(NC(=O)C3CCCN(C(=O)C4CC4)C3)cc2)cc1)C1CC1 (stereo not given)	.	3	1	4	-1.7	-11	.	i	.	6
COc1ccc(Cl)cc1NC(=O)CN(C)C(=O)c1cc(-c2cccs2)nn1-c1ccccc1	0.5	.	-22	-19	-2.9	0.6	8	i	27	22
Clc1ccc(-c2nc3ncccn3c2Nc2ccc3c(c2)OCCO3)cc1	-0.8	6	.	.	.	.	-1	.	20	-10
Cc1cc(C)c(C)c(OCCOCCNCc2ccccc2)c1	?	19	.	.	.	4.9	8	i	20	17
CC(C)=CCC12Oc3cc(O)ccc3C1(O)Oc1cc(O)c([C@H]3C=C(C)CC(c4ccc(O)cc4O)[C@H]3C(=O)c3ccc(O)cc3O)c(O)c1C2=O (stereo not given in full)	-5.2	-2	.	.	.	.	-10	.	3	60
O=C(O)c1ccc(-n2nncc2-c2ccco2)cc1	2.1	.	6	11	0.2	1.3	3	i	2	-7
CC1(C)C(=O)Nc2ccccc2N1C(=O)COc1ccc(S(=O)(=O)N2CCOCC2)cc1Cl	-5.1	2	.	.	.	.	2	.	2	-4
CC(C)(C)N(NC(=O)Nc1ccccc1)C(=O)c1ccccc1Cl	1.5	1	.	.	.	.	0	.	12	-4
CCCN=C1CC(C)(C)CC(=O)/C1=C(/O)CCCN1C(=O)c2ccccc2C1=O	2.4	1	-10	-12	7.2	-12	-4	i	-4	2
O=C(CSc1nc2ccccc2c(=O)n1CC1CCCO1)Nc1ccccc1Cl (stereo not given)	0.2	0	-4	-12	1.1	5.1	11	i	8	4
O=C(CSCc1ccccc1Cl)NNC(=S)Nc1ccccc1	1.1	-7	-5	-26	-0.2	.	26	.	-1	59
CS(=O)(=O)N1CCN(c2ccccc2NC(=O)c2cccnc2Cl)CC1	-0.7	-2	.	.	.	.	4	.	-33	-6
N/C(=N\OC(=O)c1cccc(Br)c1)c1ccccn1	?	-1	4	2	-0.2	-1.7	5	.	-11	1
COc1cccc(OC)c1C(=O)NC(=S)Nc1ccc(S(=O)(=O)Nc2nccs2)cc1	4.3	-3	-34	-48	7.4	-7.9	10	i	4	2
COc1ccc(C(=O)N/C(=C\c2ccco2)C(=O)NCc2cccnc2)cc1	1.7	-6	.	.	.	.	6	.	-14	-6
CN(C)c1ccc(C(=O)NC2CCCc3ccccc32)cc1 (stereo not given)	-0.2	0	2	4	-0.3	-2.5	-13	i	10	6
CN(C)S(=O)(=O)c1ccc(C(=O)OCC(=O)c2csc(N3CCCCC3)n2)cc1	.	0	.	.	.	-3.8	.	i	.	1
CC(C)c1nnc(NC(=O)C2CCCCC2)s1	-0.2	-6	-1	0	-3.2	-7.9	3	i	-4	0
C=CCN1C(=O)C(CCCC)NC1=S (stereo not given)	0.4	-14	.	.	.	.	-5	.	-3	2
Cc1nnc2c(SC(C)C)nc3ccccc3n12	-5.2	4	-13	-9	1.4	-1.3	-18	i	-2	48
Cn1c2ccccc2c2n[nH]c(=S)nc21	-0.9	-9	12	9	-0.7	-4.4	-2	i	-1	72
COC(=O)c1ccc2c(=O)n(CCN3CCOCC3)c(SCC(=O)c3ccccc3)nc2c1	0.9	-4	5	7	-1.0	1.5	7	i	-3	.
COCCOC(=O)c1ccc(NC(=O)COc2ccc([N+](=O)[O-])cc2)cc1	-2.9	.	6	3	-0.1	2.6	12	i	5	0
COc1cc(OC)c(C(=O)/C=C/c2ccccc2)c(O)c1O	-0.6	.	.	.	.	8.9	2	i	-41	47
CCOc1ccccc1Nc1nc(-c2sc(C)nc2C)cs1	0.0	0	-17	-22	-0.5	0.6	1	.	31	41
CC(=O)Nc1sc(C)c(C)c1C(=O)OCC(=O)N(C)c1c(N)n(Cc2ccccc2)c(=O)[nH]c1=O	?	-1	7	12	0.0	2.7	-2	i	-1	-1
COc1cccc(C(=O)CN2C(=O)C(C)(C)Oc3ccc(C(=O)N4CCCCCC4)cc32)c1	-4.1	2	.	.	.	.	6	.	-10	-5
COc1ccc(/C=C2\SC(=S)N(CCCC(=O)N3CCCCC3CCO)C2=O)cc1 (stereo not given)	-0.4	-21	-35	-31	1.2	12	-6	i	-3	0
O=C(Cc1ccccc1)NC(NCCc1ccccc1)C(Cl)(Cl)Cl (stereo not given)	-1.3	4	.	.	.	.	-7	.	5	-19
Clc1ccccc1OCc1nc(-c2ccccn2)no1	-0.6	3	.	.	.	.	-1	.	-1	-1
Cc1ccccc1NCC(=O)N/N=C\C=C\c1cccc([N+](=O)[O-])c1	-1.9	1	-3	-1	1.1	6.8	10	+	-5	.
CCOc1cc(C(=O)CCC(=O)OCC(=O)N2c3ccccc3NC(=O)C2(C)C)ccc1O	-1.1	0	.	.	.	.	-8	.	-6	21
C=CCNC(=O)c1cc2nc(C3CC3)cc(C(F)F)n2n1	?	-2	3	8	-5.8	3.8	23	i	2	-2
O=C(Nc1nc2c(s1)CCCC2)c1cc(-c2ccncc2)nc2ccccc12	-0.4	-3	.	.	.	.	-21	.	16	1
CCCCNc1c2c3c(cccc3n(C)c1=O)C(=O)c1ccccc1-2	-250	10	.	.	.	.	-11	.	45	-6
Cc1ccc(Oc2coc3cc(OC(=O)c4cccs4)ccc3c2=O)cc1	2.0	-3	.	.	.	.	-12	.	-24	.
CSc1ncc(CN2CCc3c([nH]c4ccccc34)C2c2cccc(O)c2)cn1 (stereo not given)	3.1	2	-27	-50	7.9	15	?	i	12	.
O=C(NCCNc1ccc(Cl)cc1[N+](=O)[O-])c1ccccc1F	0.7	.	-11	-15	4.5	6.0	48	.	8	-3
O=C(Cn1c(=O)oc2cc(S(=O)(=O)N3CCCC3)ccc21)NCc1ccccn1	1.8	0	4	10	-0.6	-2.2	-10	i	-4	1

An excerpt of these results, as comma-separated lines.
structure,RanGTP-Imp inh,Beta cell apopt,Ecoli rRNA inh,Ecoli rRNA inh OD600,Ecoli rRNA inh RFP,AF4-AF9 inh,Calb FLC,FGF22 binding,T cruzi inh,ALR inh
COc1cc(OC)c(C(=O)/C=C/c2ccccc2)c(O)c1O,-0.6,.,.,.,.,8.9,2,i,-41,47
CCOc1ccccc1Nc1nc(-c2sc(C)nc2C)cs1,0.0,0,-17,-22,-0.5,0.6,1,.,31,41

Additional records:
SMILES	RanGTP-Imp inh	Beta cell apopt	Ecoli rRNA inh	Ecoli rRNA inh OD600	Ecoli rRNA inh RFP	AF4-AF9 inh	Calb FLC	FGF22 binding	T cruzi inh	ALR inh
C/C(=N\NC(=O)Cc1ccc(Cl)cc1)c1cccc(NC(=O)c2cccnc2)c1	.	-5	-3	1	1.7	-17	-11	i	.	-16
O=C(NC(=S)Nc1ccc(Br)cn1)c1cccnc1	0.9	-4	10	11	-2.9	-10	2	i	-6	-4
Cc1ccc2cc(CCNC(=O)CC(C)(C)C)c(=O)[nH]c2c1C	0.7	.	6	8	-2.9	-5.1	-2	i	-9	29
CCOc1ccc(C(CCc2ccccc2)NC(=O)c2ccccc2)cc1OCC (stereo not given)	6.5	14	.	.	.	.	1	.	28	1
Cc1nc(C)c(C(=O)Nc2ccccc2-c2ccccc2)o1	3.1	-1	.	.	.	.	1	.	-7	-4
COc1ccc(OC)c(-c2nnc(-c3ccc(C)o3)o2)c1	-2.0	.	.	.	.	.	-1	.	3	8
CC1CC(C)CN(c2nc(NCc3ccco3)nc(N)c2[N+](=O)[O-])C1 (stereo not given)	-2.8	-1	.	.	.	.	6	.	-4	27
CCOCCCNC(=O)c1ccc(/C=C2\Oc3ccccc3N(C)C2=O)cc1	?	8	1	14	1.1	2.9	-8	i	3	-14
Cn1cc(CC(=O)NCCCN2CCOCC2)c2ccccc21	-2.6	6	3	0	-2.9	-1.5	-1	i	-7	-1
Cc1c(OC(C)C(=O)O)ccc2c3c(c(=O)oc12)CCCC3 (stereo not given)	-2.7	-1	-3	-8	1.0	-4.9	4	i	-8	1
CCN(CC)C(=O)C1CCCN(C(=O)c2oc3ccc(C)cc3c2C)C1 (stereo not given)	-1.2	1	0	-16	1.7	-23	-18	i	-3	1
CCN(CC)C(=O)c1cc2c(=O)c3cc(F)ccc3oc2nc1C	3.8	.	2	-1	-2.2	0.6	-5	i	-9	-3
CC(C)(C)c1cc2cccnc2n1Cc1cccc(Cl)c1	-3.9	5	.	.	.	.	-54	.	-9	0
COC(=O)c1sccc1NC(=O)c1ccc(C)s1	-1.4	2	.	.	.	.	-22	.	-31	.
CCn1cc(C(=O)NC(=S)Nc2ccccc2Br)cn1	-2.7	-2	-3	-7	-0.5	2.2	0	i	0	30
O=C(NCCc1nnc2ccc(NCCCN3CCOCC3)nn12)c1ccccc1F	?	-3	7	2	-2.2	-3.3	-3	i	-11	-3
Cc1ccc(NC(=O)c2ccc(CSc3nnc(-c4ccncc4)n3C)cc2)cc1	2.0	-2	.	.	.	.	-3	.	-15	-17
CCCCC(=O)Nc1ccnc(-c2cccnc2)n1	-2.1	3	.	.	.	.	33	.	-1	85*
COc1ccc(C2c3c(nc[nH]c3=O)Oc3nc[nH]c(=O)c32)cc1	2.4	1	.	.	.	.	-3	.	-16	1
COc1cccc(-n2c(Cc3cc(=O)[nH]c(=O)[nH]3)nnc2SCC(=O)NC2CCCCC2)c1	.	-14	7	9	0.7	-1.9	.	i	.	1

Entries from the list above that contain a nitro group on carbon:
SMILES	RanGTP-Imp inh	Beta cell apopt	Ecoli rRNA inh	Ecoli rRNA inh OD600	Ecoli rRNA inh RFP	AF4-AF9 inh	Calb FLC	FGF22 binding	T cruzi inh	ALR inh
COCCOC(=O)c1ccc(NC(=O)COc2ccc([N+](=O)[O-])cc2)cc1	-2.9	.	6	3	-0.1	2.6	12	i	5	0
Cc1ccccc1NCC(=O)N/N=C\C=C\c1cccc([N+](=O)[O-])c1	-1.9	1	-3	-1	1.1	6.8	10	+	-5	.
O=C(NCCNc1ccc(Cl)cc1[N+](=O)[O-])c1ccccc1F	0.7	.	-11	-15	4.5	6.0	48	.	8	-3
CC1CC(C)CN(c2nc(NCc3ccco3)nc(N)c2[N+](=O)[O-])C1 (stereo not given)	-2.8	-1	.	.	.	.	6	.	-4	27

Next entries follow.
SMILES	RanGTP-Imp inh	Beta cell apopt	Ecoli rRNA inh	Ecoli rRNA inh OD600	Ecoli rRNA inh RFP	AF4-AF9 inh	Calb FLC	FGF22 binding	T cruzi inh	ALR inh
CCOC(=O)CSc1nnc(-c2ccco2)n1-c1ccccc1	-0.2	4	0	-1	2.1	-17	-1	i	-21	6
CSc1ccccc1NC(=O)Nc1cccc(Cl)c1C	2.5	4	9	13	-4.6	-0.7	3	i	3	-3
O=C(CSc1nnc(-c2ccc(Br)o2)n1Cc1ccccc1)c1ccccc1F	-0.2	-1	.	.	.	.	21	.	8	8
Cc1cccc(NC(=O)CN(CC2CCCO2)C(=O)c2oc3ccccc3c2C)c1C (stereo not given)	.	0	6	17	1.8	-15	.	i	.	-16

Source: PubChem BioAssay (Broad Institute)
